# From PubChem BioAssay
# miR-21 FLuc: raises the signal of a miR-21 reporter | HeLa miR-21 FLuc reporter, luciferase, 48 h | Potency, µM (top dose mostly 38.3 µM), inactives show at the highest dose reporter change, positive = more light | 340,000 tested, under 10 active; active = well fitted rising curve with a large enough effect; inconclusive = small, poorly fitted or top-dose-only effect; inactive = no such curve, though single readings can be large or run the other way;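 note: % of control where 0% means no effect; miR-21 action dims this reporter so a rising signal means less miR-21 action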
#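 Luminescence from a firefly luciferase reporter carrying a miR-21 binding site downstream, stably expressed under a CMV promoter in HeLa cells that make miR-21 endogenously, reports miRNA modulation after 48 h compound exposure up to approximately 40uM final.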
# Rango complex inh: inhibitors of Rango-importin beta complex formation. actives 0.031% (n = 340,000). Q14974. Rango CFP/YFP FRET sensor + importin beta, 45 min. Potency, µM (series often up to 92.2 µM), without a hit: top-dose inhibition of complex formation. AID 540263; active = rising FRET ratio curve, often small or poorly fitted; inconclusive = mostly compound fluorescence or quenching in the first reads; inactive = flat curves in all reads;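 note: potency is the fitted concentration of half-maximal effect; 0% = DMSO wells and 100% = buffer wells lacking importin beta; nearly all actives have a fitted effect of over 15% in size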
# Target sequence (Q14974 whole entry, looked up): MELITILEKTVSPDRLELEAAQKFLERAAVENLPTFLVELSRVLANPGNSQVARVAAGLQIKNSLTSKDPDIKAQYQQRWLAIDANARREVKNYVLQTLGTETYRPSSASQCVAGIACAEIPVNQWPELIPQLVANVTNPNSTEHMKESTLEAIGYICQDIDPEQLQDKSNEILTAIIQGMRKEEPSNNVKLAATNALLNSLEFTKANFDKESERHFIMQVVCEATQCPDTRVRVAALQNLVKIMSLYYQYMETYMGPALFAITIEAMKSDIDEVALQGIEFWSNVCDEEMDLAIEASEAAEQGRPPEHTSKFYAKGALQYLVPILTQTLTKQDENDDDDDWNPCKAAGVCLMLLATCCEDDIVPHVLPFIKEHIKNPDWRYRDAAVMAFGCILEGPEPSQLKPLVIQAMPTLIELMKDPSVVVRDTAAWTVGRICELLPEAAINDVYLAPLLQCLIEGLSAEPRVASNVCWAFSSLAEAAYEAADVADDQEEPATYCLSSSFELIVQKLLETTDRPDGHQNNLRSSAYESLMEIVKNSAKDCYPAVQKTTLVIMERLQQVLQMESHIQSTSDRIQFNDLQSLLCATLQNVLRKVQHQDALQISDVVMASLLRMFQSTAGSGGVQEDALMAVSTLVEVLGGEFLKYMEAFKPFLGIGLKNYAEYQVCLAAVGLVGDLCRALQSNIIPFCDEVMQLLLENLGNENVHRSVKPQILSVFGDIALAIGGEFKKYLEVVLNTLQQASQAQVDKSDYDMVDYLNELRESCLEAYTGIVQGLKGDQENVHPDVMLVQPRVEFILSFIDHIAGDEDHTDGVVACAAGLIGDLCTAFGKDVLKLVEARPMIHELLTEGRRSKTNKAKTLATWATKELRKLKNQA
#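 Inhibition scored from the CFP 486 nm/YFP 530 nm FRET ratio 45 min after adding 0.125 microM importin beta to 50 nM Rango biosensor preincubated 5 min with compound (room temperature, PBS with DTT, Tween-20, BSA). No-importin wells as positive control.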
# Rango dissoc inh: inhibitors of RanGTP-induced Rango-importin beta complex dissociation; Biochemical FRET Rango-importin beta, RanGTP-induced dissociation; Potency, µM (doses to about 46.1 µM), without a hit: at the top dose activity change, negative = inhibition; actives 0.071% (n = 340,000); active means falling FRET ratio curve, often poorly fitted, with flat reads before Ran was added; inconclusive means other falling curves, or compound fluorescence or quenching; inactive means flat or rising ratio curve;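 note: potency is the fitted concentration of half-maximal effect; % of control where 0% means no effect; nearly all actives have a fitted effect of over 45% in size; -100% = wells without RanGTP and RCC1; the record marks most hits as doubtful in a second field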
#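 Rango/importin beta premix (0.1/0.25 uM final), PBS + 1 mM DTT + 0.02% Tween-20 + 0.1% BSA; cpd 5 min RT; FRET pre-read; + RanGTP-RCC1 (0.6 uM Ran, 2 mM GTP, 0.2 uM RCC1); 45 min RT; FRET post-read, ex 430, em 486/530 nm.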
# GLA inh pH 4.5: blocks human alpha-galactosidase A at pH 4.5 | P06280 | AID 1467 | activity change, negative = inhibition, % at 105 µM | purified enzyme, 4-MU-alpha-Gal fluorescence, pH 4.5 | 230,000 tested, under 10 active; inconclusive = small, poorly fitted or top-dose-only inhibition, or a rising curve; inactive = flat fitted curve, though single readings scatter; no compound was filed as active;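 note: 0% = full activity with enzyme and -100% = basal without enzyme; dose as in the result columns while the protocol names 77 µM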
# * hit, by the source's call; ? = inconclusive; . = not tested or not shown; & = joins results of further samples.
SMILES,miR-21 FLuc,Rango complex inh,Rango dissoc inh,GLA inh pH 4.5
NS(=O)(=O)c1ccc(NC(=O)CN2CCCC2)cc1,1%,0.3%,0%,4
O=C(N=C1SC2CS(=O)(=O)CC2N1Cc1ccccc1Cl)C1CC1 (stereo not given),-3%,-2.1%,-5%,.
CC(=NNC(=O)c1ccncc1)c1cccc(Cl)c1,.,2.4%,8%,.
CC(C)CC1Nc2ccc(C(=O)NCc3ccc4c(c3)OCO4)cc2NC1=O (stereo not given),13%,-0.2%,-16%,.
COc1ccc(C(=O)N/N=C/C(=O)c2ccccc2)cc1,-40%,0.5%,15%,.
COc1ccccc1NC(=O)c1ccc(SCC(=O)NCc2ccccc2Cl)c([N+](=O)[O-])c1,-3%,-0.2%,-11%,-1
CC1CCN(C(=O)COC(=O)c2c[nH]c3ccccc23)CC1,.,-1.3%,-2%,.
CC(C)OC(=O)c1ccc(NC(=O)CSc2nc3ncccc3[nH]2)cc1,-13%,-2.1%,4%,4
Cc1ccccc1NC(=O)c1cccc2c1C(=O)N(C1CCCCC1)C2,0%,-2.4%,2%,.
COc1cccc(CN(C(=O)c2ccc([N+](=O)[O-])cc2)C2CCS(=O)(=O)C2)c1 (stereo not given),0%,0.6%,5%,.
Cc1cc(=O)oc(C)c1C(=O)Nc1ccc2ncccc2c1,-3%,?,?,7
Cc1ccccc1SCC(=O)OCC(=O)NCc1ccccc1,.,2.1%,9%,.
O=C1c2oc3ccccc3c(=O)c2C(c2ccc(O)cc2)N1c1nccs1 (stereo not given),0%,-1.1%,17%,-14
O=C(NCCN1CCOCC1)c1cccc(Cl)c1,-3%,3.5%,-4%,6
CCOC(=O)C(C)Sc1nnc(NC(=O)c2ccc(C)c([N+](=O)[O-])c2)s1 (stereo not given),-14%,?,24%,-6
COc1cc(OC)cc(C(=O)NNC(=S)NC(=O)c2cccnc2)c1,0%,-2.8%,11%,.
Cc1cc(CN2CCCC(CO)(Cc3cccc(Cl)c3)C2)n[nH]1 (stereo not given),-13%,-0.3%,-7%,3
Cn1nnnc1SCC(=O)NC1CCCC1,0%,-2.7%,-10%,.
CCOC(=O)C(C(=O)Cc1ccccc1)c1ccccc1 (stereo not given),.,2.4%,5%,.
O=S(=O)(c1cccc(-c2n[nH]c(=S)n2-c2ccccc2Cl)c1)N1CCOCC1,.,-3.5%,-7%,.
CC(C)(C)c1cc(CCC(=O)N2CCC2)cc(C(C)(C)C)c1O,-18%,14%,7%,.
Cc1ccc(NC(=O)Cn2nc(C)c3ccccc3c2=O)cc1,-7%,0.7%,8%,0
CC(=O)Nc1ccc2c(c1)n(C)c(=O)n2C,-5%,2.5%,-12%,2
CC(CC(=O)Nc1ccc(S(=O)(=O)N2CCOCC2)cc1)c1ccccc1 (stereo not given),1%,-0.1%,12%,0
Cc1ccc2c(c1)cc1c(=O)n(CC(=O)NCCN3CCCC3)nc(C)n12,-1%,-0.9%,-2%,.
Cc1cc(C(=O)NNC(=S)NCC(C)C)cs1,-18%,1.7%,-6%,-1
Cc1cccc(C(=O)OC(C)CN2CCOCC2)c1 (stereo not given),-12%,-0.2%,-2%,-8
O=C(O)c1ccc(COc2ccc3c(c2)CCC3)cc1,-29%,-0.1%,0%,3
C=CCNC(=O)COC(=O)c1nc2nccc(C)n2n1,-1%,-3.2%,7%,0
S=C(NC1CCCC1)N1CCN(C/C=C/c2ccccc2)CC1,10%,-0.1%,0%,-5
N#Cc1ccccc1OCC(=O)NC1CCCCC1,.,-3.6%,-8%,.
NC(=O)c1cc(C(=O)c2ccc(Cl)cc2)c[nH]1,-2%,0.6%,3%,3
CCCCC(=O)Nc1ccc2oc(-c3cccnc3)nc2c1,-58%,6.5%,0%,0
Cc1ccc(-c2c[n+](Cc3ccc(Cl)c(Cl)c3)c3n2CCC3)cc1,29%,2.9%,2%,-4
O=S(=O)(c1ccc2c(c1)OCCO2)N1CCN(Cc2ccccc2)CC1,-10%,-1.8%,0%,3
O=C(O)C1=NN(c2cc(Cl)c(S(=O)(=O)O)cc2Cl)C(=O)C1,.,-1.0%,-1%,.
CCOC(=O)c1c(-c2cccc([N+](=O)[O-])c2)csc1NC(=O)CCCOc1ccccc1,-3%,2.5%,-1%,-14
CCCCNC(=O)Cc1cc(=O)[nH]c(=O)[nH]1,-2%,?,1%,2
CN1CCN(CC(O)COCc2ccc3c(c2)OCO3)CC1 (stereo not given),-1%,-4.9%,16%,0
CCn1c(CSc2nnc(-c3cccnc3)n2-c2ccccc2C)nc2cc(C(=O)O)ccc21,-1%,.,.,-3
CCC/C(=C1/c2ccccc2C(=O)N1c1ccccc1)c1ccc2c(c1)OCO2,.,-2.3%,-8%,.
Cc1cc(/C=N/Nc2ncnc(N)c2[N+](=O)[O-])c(C)n1-c1ccccc1,8%,0.7%,40%,-2
COc1ccc(NC(=O)N2CCc3ccccc3C2)c(OC)c1,-37%,4.9%,-16%,.
COc1ccc(C(=O)OCC(=O)Nc2ccc(OC(F)F)cc2)c(OC)c1,-1%,?,-26%,-10
Cc1ccc(-c2csc(=S)n2CC(=O)OCC(=O)NC(C)C(C)C)cc1 (stereo not given),-1%,-1.8%,-5%,-14
O=C(CN(c1cccc(C(F)(F)F)c1)S(=O)(=O)c1ccccc1)N1CCOCC1,-5%,5.4%,2%,-3
CCOC(=O)c1sc2nc(SC)nc(-c3ccc(Cl)cc3)c2c1N,-1%,-2.2%,-5%,-5
O=C(Cn1nnc(-c2ccccc2Cl)n1)N1CCN(S(=O)(=O)c2ccc(Cl)cc2)CC1,0%,-5.5%,3%,-7
O=C(CN1CCCCCC1)Nc1ccc(Br)cc1Br,-44%,1.1%,0%,-6
O=C(NC(=O)c1ccccc1)NC(=O)c1ccccc1,-6%,2.2%,8%,3
c1ccc(CCNc2ccc3nncn3n2)cc1,4%,-1.4%,0%,-20
COc1ccc(C2(C)ON(c3ccccc3C(F)(F)F)C2=O)cc1 (stereo not given),.,-3.1%,6%,.
Cc1ccc(S(=O)(=O)N2C[C@@H]3[C@H]4CC[C@H](C4)[C@@H]3[C@@H](C)[C@@H]2c2cccn2Cc2ccccc2)cc1,.,-4.5%,0%,.
Cc1ccccc1Cn1ccc(NC(=O)c2cnn3c(C(F)(F)F)cc(-c4ccco4)nc23)n1,-4%,-0.4%,-3%,-25
COc1nc(-c2ccccc2)ccc1-c1noc(-c2ccccc2)n1,-17%,-1.3%,8%,1
CCN(CC)S(=O)(=O)c1ccc(N(C)C)c(NC(=O)CSCc2c(C)noc2C)c1,2%,3.7%,-4%,.
COC(=O)Cc1ccc(NC(=S)NCc2ccccc2)cc1,-6%,0.6%,-4%,5
CCC1=C(OC(=O)N(CC)CC)N2C(=O)OC(=NCC3CC3)[C@]2(Cc2ccccc2)[C@H]2C1=CC[C@H]1C(=O)N(c3ccccc3)C(=O)[C@H]12,28%,?,-4%,-3&-12
CCOC(=O)c1sc(N)c(C#N)c1COC(=O)CNC(=O)c1ccccc1,-7%,?,-9%,-4
Cc1cc(C)cc(NC(=O)NCC(O)COc2ccc([N+](=O)[O-])cc2)c1 (stereo not given),11%,-2.6%,-2%,5

# Entries of single compounds, looked up by structure. Screens in order: miR-21 FLuc	Rango complex inh	Rango dissoc inh	GLA inh pH 4.5
# `c1ccc(CCNc2ccc3nncn3n2)cc1` reads 4%	-1.4%	0%	-20
# `CCOC(=O)c1sc2nc(SC)nc(-c3ccc(Cl)cc3)c2c1N` reads -1%	-2.2%	-5%	-5
# `Cc1cc(C)cc(NC(=O)NCC(O)COc2ccc([N+](=O)[O-])cc2)c1` (stereo not given) reads 11%	-2.6%	-2%	5
# `COc1ccc(C2(C)ON(c3ccccc3C(F)(F)F)C2=O)cc1` (stereo not given) reads .	-3.1%	6%	.
# `CCC1=C(OC(=O)N(CC)CC)N2C(=O)OC(=NCC3CC3)[C@]2(Cc2ccccc2)[C@H]2C1=CC[C@H]1C(=O)N(c3ccccc3)C(=O)[C@H]12` reads 28%	?	-4%	-3&-12

# Remaining list, next part:
SMILES,miR-21 FLuc,Rango complex inh,Rango dissoc inh,GLA inh pH 4.5
CCOC(=O)N/N=C(/C)c1ccc([N+](=O)[O-])o1,27%,.,.,-8
Cc1nc(SCC(=O)NC(=O)NC2CCCCC2)nc(C)c1C,1%,-0.7%,-16%,2
CC(=O)NC(c1ccc(Cl)cc1)c1c(O)ccc2ccc(O)cc12 (stereo not given),9%,1.5%,-3%,0
O=C(Cn1cc(C(F)(F)F)cc(Cl)c1=O)NCc1ccccc1,-40%,2.0%,12%,.
O=C(NCC1CC1)c1cccc2c1C(=O)c1ccc(-c3ccc(OC(F)(F)F)cc3)cc1S2(=O)=O,.,?,16%,.
Cc1cc(C)c2sc(NC(=O)c3ccc(N4C(=O)CCC4=O)cc3)nc2c1,-2%,5.0%,-1%,-7
C=CCn1c(SCC(=O)Nc2ccc3c(c2)OCO3)nc2ccccc2c1=O,-4%,-2.7%,1%,-8
C(=C\c1ccncc1)/c1ccncc1,-9%,-13%,-4%,0
CCOC(=O)C1=C(C)N(CC(C)C)C(=O)/C1=C\c1ccc(OCC(=O)Nc2ccccc2)cc1,-7%,-1.0%,-14%,-3
CC(=O)N1[C@H](Cc2ccccc2)C=C[C@]1(C)C(=O)NCCN1CCOCC1,-4%,-3.5%,19%,-2
CC(=O)c1cccc(NC(=O)c2cc(-c3cccs3)on2)c1,-18%,0.0%,-4%,.
Cn1c(SCC(=O)OC2CCCCC2)nnc1-c1ccco1,28%,0.2%,-12%,-1
CC1CN(C(=S)Nc2ccc(Br)cc2Cl)CC(C)O1 (stereo not given),0%,1.1%,?,.
CN1CCCCc2c1nc1c(c2N)CCCC1,-13%,-0.2%,-1%,7
Cc1sc2ncnc(N)c2c1C,-22%,0.9%,-23%,2
CCN(CC)S(=O)(=O)c1ccc(OC)c(NS(=O)(=O)Cc2ccccc2)c1,6%,-0.2%,3%,.
CCOc1ccc(NC(=O)CN2CCN(CC(=O)Nc3cc(OC)cc(OC)c3)CC2)cc1,-2%,-4.9%,27%,0
CCOc1ccccc1NC(=O)C1CCCN(C(=O)NCc2ccccc2)C1 (stereo not given),-11%,-0.3%,-1%,2
CC1CCN(c2nc3c(c(=O)[nH]c(=O)n3C)n2CCCc2ccccc2)CC1,-3%,-1.2%,-12%,6
COc1ccc(OS(=O)(=O)Cc2ccccc2)cc1,-38%,-1.2%,-5%,.
CC1CCN(CCCCOc2ccc(F)cc2)CC1,-7%,4.5%,2%,.
COc1ccc(OC)c(CNCc2ccc3c(c2)OCO3)c1,-10%,2.1%,22%,.
CC(N=c1ccccn1C(=O)Nc1ccc(F)cc1)c1ccco1 (stereo not given),-14%,0.8%,3%,-7
CCOC(=O)[C@@H]1[C@H]2COc3ccc(Br)cc3[C@H]2N2C(=O)N(c3ccc(F)cc3)C(=O)[C@@]12C,2%,-0.2%,1%,.
N#Cc1ccc(OCC(=O)N2CCN(S(=O)(=O)c3cccs3)CC2)cc1,-1%,-1.1%,20%,5
CCOc1ccccc1NC(=O)NCCCCc1ccccc1,-1%,-1.2%,-12%,.
CC1CC(=O)Nc2ccccc2N1C(=O)CSc1ccc2ccccc2n1 (stereo not given),.,1.3%,2%,.
Cc1cc(C)c(C)c(S(=O)(=O)N2C(=S)NC(=O)C2CC(C)C)c1C (stereo not given),0%,-1.2%,5%,4
CC(=O)NC1=NN(C(C)=O)C2(CCCCC2)S1,1%,8.7%,19%,2
CCOc1ccc(OCC)c(NC(=O)C2CCCN(S(=O)(=O)c3cccs3)C2)c1 (stereo not given),17%,-0.7%,-16%,-5
Cc1ccc(NC(=O)/C=C/c2ccc3c(c2)OCO3)cc1S(=O)(=O)N1CCOCC1,30%,1.4%,?,-10
Brc1ccccc1-c1nnc(-c2cccnc2)o1,-51%,6.7%,4%,-5
CC(=O)N(CCCc1ccc(C(C)(C)C)cc1)CCCN(C)C,-20%,4.1%,0%,-1
CCOc1ccc2c(c1)C(C)=CC(C)(C)N2S(=O)(=O)c1ccc(C)cc1,25%,-4.3%,3%,-9
C/C(=N\OCc1ccccc1C#N)c1cc2ccccc2o1,-47%,-0.5%,-12%,3

# The list is partial; rates above refer to the full screens.
